Calb biofilm kill = clotrimazole potentiators killing C. albicans biofilm, primary screen, 4-compound mixtures; AID 1242, 2008; C. albicans biofilm persisters + clotrimazole, fluorescence viability; primary screen in compound mixtures of four per well; 120,000 compounds, 0.02% hits; inhibition, % at 7.6 µM;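 active = inhibition above 30.3% in the primary screen of four-compound pools, then above 30% when the compound was retested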;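 also: compounds exposed to preformed 24 h biofilms for 48 h; the number belongs to the whole pool; some results filed as inactive read as strong as hits; inactives centre near 12; 0% = biofilm with clotrimazole alone and 100% = kill control; retested singly at about 60 µM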
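Test system: C. albicans CAF4-2 wild-type biofilms; buffer or medium: RPMI/MOPS medium, pH 7.0; schedule: 24 h biofilm formation, then 48 h compound exposure, 37 °C; detection: Alamar Blue fluorescence; measure: percent inhibition of biofilm viability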
* hit, by the source's call; & = joins results of further samples. Some of the compounds tested, so the mix of outcomes need not match the whole.

molecule,Calb biofilm kill
OC1CCCCC1N1CCC(c2ccccc2)CC1 (stereo not drawn),14.8
COc1ccc(C=O)cc1O,9.4
Cc1c(NP(=O)(C(C)(C)C)C(C)(C)C)c(=O)n(-c2ccccc2)n1C,9.8
CCOP(=O)(OCC)C(NC(=O)c1ccccc1C)C(Cl)(Cl)Cl (stereo not drawn),14.4
CCOP(=O)(C#Cc1ccccc1)C(O)c1ccc(Br)cc1 (stereo not drawn),11.8
CN1C(=O)CC(c2ccccc2)Nc2ccccc21 (stereo not drawn),20.6
CN1C(=O)C(=Cc2ccc(N3CCOCC3)c([N+](=O)[O-])c2)C(=O)N(C)C1=O,7.2
O=C(CSC1c2ccccc2-c2ccccc21)N/N=C/c1ccccc1C(=O)O,21.9
O=C(c1cccc(C(F)(F)F)c1)C1CCCN(Cc2ncc[nH]2)C1 (stereo not drawn),6.7
NC(=O)CN1CCCC1=O,2.3
Cc1cc(/C=C2\C(=O)NC(=O)N(c3ccc(F)cc3)C2=O)c(C)n1-c1ccc(C(=O)O)cc1,2.9
C=C1C/C(=C/C)C(=O)O[C@@H]2CCN3CC=C(COC(=O)[C@]1(C)O)[C@H]23,20.6
COCc1ccc(CN2CCCC(C(=O)c3sccc3C)C2)o1 (stereo not drawn),13.4
O=C(c1ccc(Cl)cc1)C1CCCN(Cc2ccc3ncccc3c2)C1 (stereo not drawn),13.6
CN1C(=O)NC(=O)/C(=C\c2ccc([N+](=O)[O-])o2)C1=O,8.3
O=C(Cn1c(=O)n(CC2CS2)c2ccccc21)N1CCCCC1 (stereo not drawn),11.1
CC(C)N1CCN(Cc2cccc([N+](=O)[O-])c2)CC1,0.8
CN1CCc2c([nH]c3ccccc23)C1,19.5
CCc1cccc(CC)c1NC(=S)N1CC2CC(C1)c1cccc(=O)n1C2 (stereo not drawn),13.5
O=C1NC(=O)N(Cc2ccco2)C(=O)/C1=C/C=C/c1ccco1,7.8
COC(=O)[C@@H](N)CCCN=C(N)N[N+](=O)[O-],-3.6
Cc1onc(-c2c(Cl)cccc2Cl)c1C(=O)Nc1ccc2c(C(F)(F)F)cc(=O)oc2c1,21.9
CC(Cc1ccccc1)NCC(=O)Nc1cc(N(C)C)nc2ccccc12 (stereo not drawn),14.3
CCCCN(Cc1ccccc1)C1CCN(CCc2ccccc2)CC1,12.0
O=C1N(c2ccccc2)C(c2cccnc2)N2CCCN12 (stereo not drawn),14.5
COC(=O)C(O)(c1ccc(N(C)C(=O)c2cccs2)cc1)C(F)(F)F (stereo not drawn),11.0
C=CCn1c(O)c(/C=N/N2CCOCC2)c(=O)[nH]c1=S,21.1
CC[n+]1c(/C=C/C=C/c2ccc(N(C)C)cc2)sc2ccccc21,20.4
Cc1ccccc1-n1c(O)c(/C=N/Nc2nc3c(c(=O)n(C)c(=O)n3C)n2C)c(=O)[nH]c1=S,10.6
S=C1CN=C(c2ccccc2Cl)c2cc(Cl)ccc2N1,11.4

Brought forward from above: 2 entries, followed by the next part.
molecule,Calb biofilm kill
Cc1ccccc1-n1c(O)c(/C=N/Nc2nc3c(c(=O)n(C)c(=O)n3C)n2C)c(=O)[nH]c1=S,10.6
S=C1CN=C(c2ccccc2Cl)c2cc(Cl)ccc2N1,11.4
CC(C)C(C)(NC(=O)c1cccn(Cc2ccc3c(c2)OC(F)(F)O3)c1=O)C(N)=O (stereo not drawn),12.0
Cn1c(O)c(C=NC2CCCCCC2)c(=O)[nH]c1=S,11.4
CN1CC[C@@]23CCCC[C@@H]2[C@@H]1Cc1ccc(O)cc13,20.1
NCCNc1ccc([N+](=O)[O-])c2cccnc12,16.4
CCCCOCCCN1C(C)=CC(=C2C(=O)NC(=S)NC2=O)C=C1C,16.3
CCOP(=O)(Cc1ccc(C#N)o1)OCC,7.9
CC1CCN(C(=O)C(C)Cl)CC1 (stereo not drawn),21.1
COc1cc(N2CCOCC2)ccc1C=C1C(=O)NC(=O)NC1=O,-7.1
Cc1ccc(C2N3CCCN23)cc1 (stereo not drawn),24.5
O=C(Nc1ccc(OC(=O)N2CCCCC2)cc1)N1CCOCC1,0.5
COc1ccccc1C1C([N+](=O)[O-])=C(N)Oc2c1c(=O)oc1ccccc21 (stereo not drawn),15.9
OC(CCNCCc1c[nH]c2ccccc12)C(F)(F)F (stereo not drawn),13.8
CNC(C(=O)c1ccccc1)C(OC(C)=O)c1cccc([N+](=O)[O-])c1 (stereo not drawn),27.6
Cc1cc(C(=O)CS(=O)(=O)c2ccccc2)cc(C)c1OC(=O)N(C)C,21.1
O=C(/C=C/c1c[nH]c2ccccc12)c1c(O)n(CCc2ccccc2)c(=O)[nH]c1=O,14.9
COc1ccc(N2C(=O)NC(=O)/C(=C\c3ccc([N+](=O)[O-])s3)C2=O)cc1,13.0
O=[N+]([O-])/C=C1\NCCN1Cc1ccc(Cl)nc1,1.8&6.8
CN1CCN(c2c(F)cc([N+](=O)[O-])c(N)c2Br)CC1,1.6
Cc1cc(C(=O)CN2CCCC2)c(C)n1-c1ccc(F)cc1,15.1
N=C1c2ccccc2CN1c1cccc([N+](=O)[O-])c1,5.4
O=C1NC(=S)N(c2ccccc2)C(=O)C1C(c1ccncc1)C1C(=O)NC(=S)N(c2ccccc2)C1=O (stereo not drawn),-2.2
O=C(CN1CC(c2ccccc2)CC1=O)NCc1ccc(F)cc1 (stereo not drawn),4.1
Cc1cc(Oc2ccc(C(F)(F)F)cc2[N+](=O)[O-])c2c3c(c(=O)oc2c1)CCCC3,4.7
COc1cc(CC2(CCc3ccncc3)C(=O)NC(=O)NC2=O)cc(OC)c1OC,12.8
CC(=O)N1N=C2C3CCN(CC3)C2C1c1ccc(C)cc1 (stereo not drawn),11.7
CN1C(=O)c2ccccc2NC(=O)C1Cc1ccccc1 (stereo not drawn),10.0
CCCCCCC[n+]1ccc(-c2cc[n+](CCCCCCC)cc2)cc1,9.1
C=CCN1CC[C@]23c4c5ccc(O)c4OC2C(=O)CC[C@@]3(O)C1C5 (stereo partly drawn),12.5
CCOc1ccc2nc(N=Nc3c(O)[nH]c(=O)[nH]c3=O)sc2c1,11.3
COc1cc(CN2CCCC(C(=O)c3sccc3C)C2)cc(Cl)c1O (stereo not drawn),16.6

Remaining list, next part
smiles	Calb biofilm kill
N#Cc1c(/N=C/C2C(=O)NC(=S)NC2=O)sc2c1CCCC2	7.0
COc1ccc(-c2n(-c3ccccn3)c3ccccc3[n+]2-c2ccccn2)cc1	7.2
Cc1cc(Br)ccc1N1C(=O)CC(=O)NC1=O	18.7
COc1ccc(-c2cc(=NCCCCCC(=O)O)c3cc(C)ccc3o2)cc1	4.1
CCn1ccnc1CN1CCCC(C(=O)c2cc(C)c(OC)c(C)c2)C1 (stereo not drawn)	17.9
O=c1[nH]c(=O)n(Cc2ccccc2)c(O)c1/C=C1\C=Nc2ccccc21	8.2
O=C(O)c1ccc(N=Cc2c(O)n(Cc3ccc(F)cc3)c(=O)[nH]c2=O)cc1	5.8
CCN(CC)S(=O)(=O)N1CCC(C(=O)N2CCC3(CC2)OCCO3)CC1	18.2
N#CC1(c2ccccc2)CCN(C2CC(=O)N(c3cccc(F)c3)C2=O)CC1 (stereo not drawn)	6.5
CCOc1ccccc1OCC(=O)Nc1ccc(Cl)cc1C(=O)c1ccccc1	-4.2
CCOP(=O)(OCC)C(O)c1ccc(N(C)C)cc1 (stereo not drawn)	11.7
O=c1c2ccccc2nc(-c2ccccc2)n1-c1ccccc1	17.1
S=C1NC2(CCCCC2)NC12CCCCC2	10.7
Cc1ccc2c(CN3CC=C(c4ccccc4)CC3)cc(=O)oc2c1C	12.9
Cc1ccc2c(c1)C1CN(C)CCC1N2C(=O)/C(C#N)=C/c1ccc2c(c1)OCO2 (stereo not drawn)	5.4
O=C(CN1CC(c2ccccc2)CC1=O)Nc1cccc(F)c1 (stereo not drawn)	7.9
COc1ccc(C2CN(C)CC2C(=O)c2ccc(F)cc2)cc1Cl (stereo not drawn)	10.6
Cc1cccc(C)c1OC(=O)Cc1ccccc1	21.6
CCCC(=O)N(C)C1=Nc2ccc(Cl)cc2C(c2ccccc2)=[N+]([O-])C1	24.7
O=c1[nH]c(=O)n(-c2ccc(Cl)cc2)c(O)c1C=NCCN1CCCCC1	4.8
CC(C(=O)Nc1ccc(Cl)cc1Cl)N1CC=C(c2ccccc2)CC1 (stereo not drawn)	15.6
CN(C)c1ccc(/C=C2/C(=N\O)C3CCN2CC3)cc1	16.2
CS(=O)(=O)NNP(=O)(NNS(C)(=O)=O)NC(=O)c1ccc(Br)cc1	19.2
CC/C(=N\N1CCN(C)CC1)c1c(O)[nH]c(=O)[nH]c1=O	7.4
CN1C(=O)C(=Cc2cc([N+](=O)[O-])ccc2N2CCCCC2)C(=O)N(C)C1=O	20.1
CCN1CCN(c2ccc(NC(C)=O)cc2Cl)CC1	2.6
O=c1[nH]c(=O)n(-c2ccccc2)c(O)c1/C=C/C=Nc1ccccc1	17.6
CC(C)N1OC2CC1c1nc3ccccc3n1C2 (stereo not drawn)	12.9
CC[C@@H](CO)NC(=O)[C@@H]1C=C2c3cccc4c3c(cn4C)C[C@H]2N(C)C1	10.6&14.9
C#CC[N+]1(C)C2CCC1CC(O)C2 (stereo not drawn)	12.1
O=C1/C(=C/c2ccccc2Cl)N2CCC1CC2	30.5
O=C(Cc1ccccc1)OCCN1CCOCC1	5.6
O=C1NC(=O)N(Cc2ccccc2)C(=O)/C1=C/N1CCCc2ccccc21	-4.0
COc1ccc(N/N=C/c2c(O)n(-c3ccc(C)c(C)c3)c(=O)[nH]c2=O)cc1	15.9
O=C(c1ccc2c(c1)ncn2-c1ccc(F)cc1F)N1CCC2(CC1)OCCO2	9.3
COC(=O)C(O)(c1ccc(NC(=O)c2cccs2)c(C)c1)C(F)(F)F (stereo not drawn)	15.5
CC1=CC(=C2C(=O)NC(=S)NC2=O)C=C(C(F)(F)F)N1CCc1ccccc1	3.6
CCOC(=O)C1=C(NC(=S)NC(=O)c2ccccc2)c2ccccc2CC12CCCC2	-11.5
c1ccc(P(c2ccccn2)c2ccccn2)cc1	10.9
COc1ccc(NC(=O)c2c(C)nn(Cc3ccccc3Cl)c2Cl)cc1Cl	16.0
Nc1cncc(C(=O)O)c1	19.1&-6.2
Cc1ccsc1C(=O)C1CCCN(Cc2cnc(N3CCOCC3)s2)C1 (stereo not drawn)	1.8
C/C(=N\N(C)c1ccccc1)c1c(O)[nH]c(=O)[nH]c1=O	12.5
O=C(c1ccc(Cl)cc1)C1CCCN(Cc2cccc3cnccc23)C1 (stereo not drawn)	-0.3
COc1cc(/C=C/C(=O)c2c(O)n(CCc3ccccc3)c(=O)[nH]c2=O)ccc1O	1.9
Cc1ccc2c(c1)N(N=O)CCC2	7.7
Cn1c(O)c(C=NCCN2CCNCC2)c(=O)[nH]c1=O	10.6
CSc1nc2ccccc2c(=O)n1-c1cccnc1	23.4
CC12CCC3C(CC=C4CC5(CCC43C)OCCO5)C1CCC2=O (stereo not drawn)	11.2
Cn1c(O)c(C=NCCCCCCCCCCC(=O)O)c(=O)n(C)c1=O	23.5
O=C(c1ccc(N2CC3CC(C2)c2cccc(=O)n2C3)c([N+](=O)[O-])c1)N1CCCCC1 (stereo not drawn)	19.4
O=C1NC(=O)N(Cc2ccccc2)C(=O)/C1=C\c1ccco1	11.0
CP(=O)(O)CN1CCCCC1	-0.5
CCC(C)n1c(O)c(C=NCc2cccnc2)c(=O)[nH]c1=S (stereo not drawn)	20.4
COC(=O)[C@H]1C[C@@H]1[C@H](NP(=O)(c1ccccc1)c1ccccc1)c1ccccc1	14.8
Nc1c([N+](=O)[O-])cc(F)c(N2CCNCC2)c1Br	7.7

Next part
smiles	Calb biofilm kill
COc1cccc(C(=O)C2CCCN(Cc3cccc(C)n3)C2)c1 (stereo not drawn)	-0.2
NC(=O)C1CCN(/C=C2\C(=O)NC(=O)N(Cc3ccco3)C2=O)CC1	9.6
COc1cccc(C(=O)N2CCC3(CC2)OCCO3)c1	13.5
CC(C)OP(=O)(O)NC(=O)c1ccccc1	15.6
CCOP(=O)(OCC)C(O)c1ccc(Br)cc1 (stereo not drawn)	11.6
CCOP(=O)(OCC)C(NC(=O)CN1C(=O)c2ccccc2S1(=O)=O)C(Cl)(Cl)Cl (stereo not drawn)	9.4
N=C1c2ccccc2CN1NC(=O)C1CC1	17.0
C[C@H](O)[C@H]1CC[C@H]2[C@@H]3CCC4=CC(=O)CC[C@]4(C)[C@H]3CC[C@]12C	7.7

Four entries from above, ordered by heavy-atom count, smallest number first.
smiles	Calb biofilm kill
CC(C)OP(=O)(O)NC(=O)c1ccccc1	15.6
C[C@H](O)[C@H]1CC[C@H]2[C@@H]3CCC4=CC(=O)CC[C@]4(C)[C@H]3CC[C@]12C	7.7
COc1cccc(C(=O)C2CCCN(Cc3cccc(C)n3)C2)c1 (stereo not drawn)	-0.2
CCOP(=O)(OCC)C(NC(=O)CN1C(=O)c2ccccc2S1(=O)=O)C(Cl)(Cl)Cl (stereo not drawn)	9.4

Single values from the entries so far:
COc1cccc(C(=O)C2CCCN(Cc3cccc(C)n3)C2)c1 (stereo not drawn) in Calb biofilm kill is listed with -0.2
CC(C)OP(=O)(O)NC(=O)c1ccccc1 in Calb biofilm kill is listed with 15.6

(continued)
smiles	Calb biofilm kill
COc1cc(CN2CCCC(C(=O)c3sccc3C)C2)cc(OC)c1O (stereo not drawn)	9.8
O=[N+]([O-])[N-][n+]1cnn(Cc2ccc(Cl)cc2)c1	23.5
O=C1NC(=O)N(Cc2ccco2)C(=O)/C1=C\c1cccn1CCOc1ccccc1	19.8
CCN(CC)S(=O)(=O)c1ccc(C)c(NCC(=O)Nc2ccc(C#N)c(Cl)c2)c1	21.2
Cc1cccc(CN2CCCC(C(=O)c3ccc4c(c3)OCO4)C2)n1 (stereo not drawn)	2.8
c1cncc(C2Nc3cccc4cccc(c34)N2)c1	23.2
CCOC(=O)C(O)(c1ccc(NC(=O)c2ccc(Cl)c(Cl)c2)cc1)C(F)(F)F (stereo not drawn)	15.6

High-throughput results: PubChem BioAssay, PCMD
